Screening results (PubChem BioAssay)
AF4-AF9 inh: blocks AF4 peptide binding to human AF9; AlphaScreen, biotin-AF4 peptide binding to FLAG-AF9; inhibition, % at 10 µM; 0.47% of 350,000 active; AID 651704;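 active = every replicate reaching a set inhibition limit, whatever the replicate mean, cut at about 25% in these data; inconclusive = mean inhibition reaches that limit but some replicates miss it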;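 note: 0% = plate neutral control median and 100% = total signal loss; the record names both 10 and 1 µM as test concentration; the first replicate is given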
Target sequence (P42568 whole entry, looked up): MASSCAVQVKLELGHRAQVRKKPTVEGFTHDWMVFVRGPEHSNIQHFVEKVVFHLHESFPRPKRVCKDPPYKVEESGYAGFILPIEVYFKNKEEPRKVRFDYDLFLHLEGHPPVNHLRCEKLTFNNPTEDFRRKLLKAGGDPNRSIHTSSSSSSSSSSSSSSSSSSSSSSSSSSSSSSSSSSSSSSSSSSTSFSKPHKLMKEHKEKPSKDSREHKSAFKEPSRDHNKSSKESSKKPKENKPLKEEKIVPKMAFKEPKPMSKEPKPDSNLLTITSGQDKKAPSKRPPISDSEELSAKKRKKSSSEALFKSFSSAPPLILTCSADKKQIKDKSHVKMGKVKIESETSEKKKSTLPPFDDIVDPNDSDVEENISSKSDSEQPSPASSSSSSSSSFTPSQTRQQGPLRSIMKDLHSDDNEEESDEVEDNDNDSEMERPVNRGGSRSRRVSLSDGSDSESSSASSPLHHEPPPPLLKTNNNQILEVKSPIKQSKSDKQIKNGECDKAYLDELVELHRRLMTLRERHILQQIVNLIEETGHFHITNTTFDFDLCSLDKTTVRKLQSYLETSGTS
Beta cell apopt: blocks beta cell apoptosis; INS-1E cytokine-induced death, ATP luminescence, 48 h; percent of positive-control rescue, neutral wells zero; protection from apoptosis, % (concentration not given with the values); 0.8% of 300,000 active;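 active = all replicates at 75% or more, or half of them and the mean; inconclusive = half reach 75% but not the mean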;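 note: 0% = cytokine-treated negative control wells and 100% = positive control rescue; higher means more ATP so stronger rescue from cytokine killing; wells of about 40 µL received 100 nL stock; the first replicate is given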
Vif A3G: HIV-1 Vif–A3G interaction blockers – biochemical, TR-FRET, GST-Vif 1-94, biotin-A3G peptide, dose response retest, primary screen (AID 1117319) | TR-FRET GST-Vif / biotin-A3G peptide binding; higher % means a stronger effect; test concentration not given here; strong numbers were not always called active | one-dose inhibition, %; IC50 in µM for titrated hits | 0.57% of 260,000 active;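 active = above the screen mean plus three standard deviations and confirmed in dose response; inconclusive = results disagree or hit not tested in dose response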;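 note: Vif residues 1-94 fused to GST binding biotinylated APOBEC3G peptide 110-148; 0% = full assay without inhibitor and 100% = GST in place of GST-Vif; retest series ran down from 100 µM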
RanGTP-Impb inh: disruptors of Ran-importin-beta complex formation – biochemical, FRET, CFP-Ran, YFP-importin-beta, homogeneous, primary screen. cell-free CFP-Ran/YFP-importin-beta FRET ratio. inhibition, % (no concentration beside the values). 1.1% of 300,000 active. AID 2216;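 active = most replicates above 15%; inconclusive = exactly half above 15%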;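 note: 0% = DMSO wells and 100% = Ran loaded with GDP instead of GTP; wells of about 40 µL received 100 nL stock; the first replicate is given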
Bfl-1 A1 inh: inhibitors of the anti-apoptotic protein A1, read as caspase activation | MEF A1-2A-BIM cells, Caspase-Glo 3/7 luminescence, 3 h; percent of clofoctol response, vehicle zero | caspase activation, % (concentration not given with the values) | 0.066% of 330,000 active;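 active = over half of replicate activation scores above 10%, or exactly half above 10 with the replicate mean above 10; inconclusive = replicate mean below 10 yet half the replicates above 10; inactive = over half of replicates below 10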;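 note: wells of about 30 µL received 50 nL stock; many hits fall short of the cut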
T cruzi inh: T. cruzi replication inhibition; T. cruzi beta-gal in NIH3T3, luminescence, 90 h; inhibition, % (no concentration beside the values); 1.4% of 300,000 active; AID 1885;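 active = mean inhibition across valid replicates above about 55%, limit read from the data; inconclusive = mean below that limit but half or more replicates reach it; inactive = mean below it, under half of replicates reach it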;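 note: signal also drops with host cell toxicity which is not excluded here; 0% = plate median of DMSO wells and 100% = zero luminescence signal; higher percent means less beta-gal luminescence so fewer parasites; stock transfer was 50 nL into about 50 µL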
Calb FLC: affects C. albicans growth with fluconazole; AID 1979; growth inhibition, % (concentration not given with the values); C. albicans CaCi-2 (fluconazole-resistant clinical isolate) + fluconazole, Alamar Blue growth, 48 h; 0.57% of 300,000 active;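 active = most replicates above 75%; inconclusive = exactly half above 75%; inactive = most below 75%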;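 note: all wells also contain fluconazole at 8 µg/ml as a sub-toxic cotreatment; 0% = median of DMSO wells and 100% = median of geldanamycin control wells; wells of about 8 µL received 7.5 nL stock; the first replicate is given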
LANA-H2A inh: blocks KSHV LANA binding to histone H2A/H2B; inhibition, % (no concentration beside the values); cell-free LANA-H2A/H2B peptide, fluorescence polarization; Q9QR71; AID 2629; 0.6% of 320,000 active; in the data active = inhibition mostly above about 10%, no sharp cut-off; inactive = mostly below about 6.7%;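 note: stock transfer was 7.5 nL into about 10 µL; 0% = median of vehicle wells and 100% = median of positive control wells; one replicate is shown; the record names a cut of 25% in any replicate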
Starred values were filed as active, the others as inactive.

How did COc1ccc(CCC(=O)N/N=C(\C)c2ccc3c(c2)OCO3)cc1 do in these assays?
AF4-AF9 inh: 0.4; Beta cell apopt: -2; RanGTP-Impb inh: 3.2; Bfl-1 A1 inh: -0.9; T cruzi inh: 8; Calb FLC: 10; LANA-H2A inh: -4.1

How did O=C(COC(=O)C12CC3CC(CC(O)(C3)C1)C2)NC12CC3CC(CC(C3)C1)C2 do in these assays?
AF4-AF9 inh: 1.6; Beta cell apopt: -6; Vif A3G: 8%; RanGTP-Impb inh: 2.6; Bfl-1 A1 inh: -0.6; T cruzi inh: 8; Calb FLC: -47; LANA-H2A inh: 2.2

Results for CCOC(=O)c1sc2nc(CSc3nc4ccccc4n3CC)[nH]c(=O)c2c1C ?
Beta cell apopt: 3; Vif A3G: -6%; RanGTP-Impb inh: -1.6; Bfl-1 A1 inh: 0.0; T cruzi inh: -7; Calb FLC: 17; LANA-H2A inh: 1.6

How did CCOC(=O)N1CCN(C(=O)/C=C/c2ccc(C(C)(C)C)cc2)CC1 do in these assays?
AF4-AF9 inh: 4.0; Beta cell apopt: -1; Vif A3G: -3%; RanGTP-Impb inh: 28*; Bfl-1 A1 inh: 0.2; T cruzi inh: 0; Calb FLC: -8; LANA-H2A inh: 37*

How did COc1ccc(N2CCN(Cc3cc(OC)c(O)c([N+](=O)[O-])c3)CC2)cc1 do in these assays?
Beta cell apopt: -1; Vif A3G: 7%; RanGTP-Impb inh: 3.2; Bfl-1 A1 inh: 0.1; T cruzi inh: -3; Calb FLC: 3; LANA-H2A inh: 0.4

How did O=[N+]([O-])c1cccnc1N1CCCCC1 do in these assays?
Beta cell apopt: 0; Vif A3G: -3%; RanGTP-Impb inh: inconclusive; Bfl-1 A1 inh: 0.7; T cruzi inh: -16; Calb FLC: -21; LANA-H2A inh: -1.4

How did Cc1ccccc1NC(=S)NC(NC(=O)COc1ccccc1)C(Cl)(Cl)Cl (stereo not drawn) do in these assays?
Beta cell apopt: 8; Vif A3G: 0%; RanGTP-Impb inh: 4.0; Bfl-1 A1 inh: 0.0; T cruzi inh: 9; Calb FLC: 2; LANA-H2A inh: 6.7

How did O=C(c1cc2c(s1)CCCCC2)N1CCN(c2ncccn2)CC1 do in these assays?
Beta cell apopt: 0; Vif A3G: -1%; RanGTP-Impb inh: -1.9; Bfl-1 A1 inh: 0.8; T cruzi inh: -9; Calb FLC: 76*; LANA-H2A inh: -4.7

Results for COc1ccc(NC(=O)COC(=O)CC2CCCCC2)cc1 ?
AF4-AF9 inh: -13; Beta cell apopt: -2; Vif A3G: 1%; Bfl-1 A1 inh: 0.5; LANA-H2A inh: -1.6

How did Cc1ccc(S(=O)(=O)c2c(COC(=O)c3cccc(Cl)c3)c(-c3ccccc3)nn2C)cc1 do in these assays?
Beta cell apopt: -6; Vif A3G: 23%; RanGTP-Impb inh: 1.6; Bfl-1 A1 inh: -0.1; T cruzi inh: 21; Calb FLC: -7; LANA-H2A inh: -2.7

What do the screens show for `CCOc1cc(/C=C(\C#N)c2nc3ccccc3[nH]2)ccc1OC(C)C(=O)O` (stereo not drawn)?
AF4-AF9 inh: 1.6; Beta cell apopt: -7; Vif A3G: 3%; RanGTP-Impb inh: -4.0; Bfl-1 A1 inh: -1.1; T cruzi inh: 9; Calb FLC: -2; LANA-H2A inh: -3.3

What do the screens show for `CCCCN1CC(=O)N2[C@H]3c4ccc(OC)cc4OC[C@@H]3[C@H](C(=O)OCC)[C@]2(C)C1=O`?
AF4-AF9 inh: -0.7; Beta cell apopt: 1; Bfl-1 A1 inh: -0.5; LANA-H2A inh: -7.2

What do the screens show for `Cn1cccc1/C=N/NC(=O)c1cc(-c2cccs2)nc2ccccc12`?
AF4-AF9 inh: 32*; Beta cell apopt: 10; Vif A3G: 6%; RanGTP-Impb inh: 1.8; Bfl-1 A1 inh: 0.3; T cruzi inh: -19; Calb FLC: 1; LANA-H2A inh: -0.4

How did CNC(=O)c1cc2c(-c3ccccc3)nn(C)c2s1 do in these assays?
AF4-AF9 inh: -0.4; Beta cell apopt: 18; RanGTP-Impb inh: 0.2; Bfl-1 A1 inh: 0.2; T cruzi inh: -3; Calb FLC: 5; LANA-H2A inh: -1.7

Results for COc1ccc(C(C[N+](=O)[O-])n2nc(C)cc2C)cc1 (stereo not drawn) ?
AF4-AF9 inh: -2.5; Beta cell apopt: -1; RanGTP-Impb inh: inconclusive; Bfl-1 A1 inh: 0.6; T cruzi inh: 4; Calb FLC: -2; LANA-H2A inh: 7.6

Results for Cc1ccc(SCCN2CCC(O)CCC2=O)cc1 (stereo not drawn) ?
AF4-AF9 inh: -2.9; Beta cell apopt: -4; RanGTP-Impb inh: 1.9; Bfl-1 A1 inh: 0.7; T cruzi inh: -3; Calb FLC: -3; LANA-H2A inh: 2.5

How did CC(Nc1ncnc2ccccc12)c1ccccc1 (stereo not drawn) do in these assays?
AF4-AF9 inh: 0.9; Beta cell apopt: 96*; RanGTP-Impb inh: inconclusive; Bfl-1 A1 inh: -0.2; T cruzi inh: 10; Calb FLC: 76*; LANA-H2A inh: 1.5

Results for C/C(=C1\SC(N2CCOCC2)=NC1=O)c1ccccc1 ?
Vif A3G: 73%; RanGTP-Impb inh: -1.3; Bfl-1 A1 inh: 0.4; T cruzi inh: -2; Calb FLC: -6; LANA-H2A inh: -5.7

Results for Cc1ccc(N2CC(c3nc4ccccc4n3C)CC2=O)cc1 (stereo not drawn) ?
AF4-AF9 inh: -2.9; Beta cell apopt: -3; Vif A3G: -6%; RanGTP-Impb inh: 4.3; Bfl-1 A1 inh: -0.5; T cruzi inh: 12; Calb FLC: -6; LANA-H2A inh: -14

How did COc1cc(CC(=O)Nc2ccccc2N2CCCCC2)cc(OC)c1OC do in these assays?
AF4-AF9 inh: 1.1; Beta cell apopt: -1; Vif A3G: 20%; RanGTP-Impb inh: -3.3; Bfl-1 A1 inh: 0.3; T cruzi inh: 16; Calb FLC: 21; LANA-H2A inh: 1.2

How did COc1ccc(CNC(=O)COC(=O)c2ccc(S(=O)(=O)NCc3ccco3)cc2)cc1 do in these assays?
AF4-AF9 inh: -1.9; Beta cell apopt: 4; Bfl-1 A1 inh: -0.2; LANA-H2A inh: 4.1

Results for CCc1ccc2[nH]c3nc(N/N=C/c4ccc(O)cc4O)nnc3c2c1 ?
AF4-AF9 inh: -1.7; Beta cell apopt: 108*; RanGTP-Impb inh: -1.2; Bfl-1 A1 inh: 0.6; T cruzi inh: 57*; Calb FLC: inconclusive; LANA-H2A inh: 4.7

What do the screens show for `CCOC(=O)C(C(=O)OCC)=C1OC(=O)c2ccccc21`?
Beta cell apopt: 4; Vif A3G: 6%; RanGTP-Impb inh: inconclusive; Bfl-1 A1 inh: -0.6; T cruzi inh: -6; Calb FLC: -17; LANA-H2A inh: 0.6

What do the screens show for `COc1ccc(C2=NN(C(=O)c3cccs3)C(c3ccccc3O)C2)cc1` (stereo not drawn)?
AF4-AF9 inh: 2.0; Beta cell apopt: 19; RanGTP-Impb inh: -0.3; Bfl-1 A1 inh: -0.1; T cruzi inh: 60*; Calb FLC: 3; LANA-H2A inh: 3.7

How did O=C1CCC(C(=O)N2CCCC(C(=O)c3ccc4c5c(cccc35)CC4)C2)=NN1 (stereo not drawn) do in these assays?
AF4-AF9 inh: 1.1; Beta cell apopt: 4; Vif A3G: 2%; RanGTP-Impb inh: -0.3; Bfl-1 A1 inh: -0.2; T cruzi inh: 6; Calb FLC: 11; LANA-H2A inh: 1.8

Results for N#Cc1c(N)nc(SCC(=O)OCc2ccccc2)c(C#N)c1-c1ccco1 ?
Beta cell apopt: -5; Vif A3G: 21%; RanGTP-Impb inh: -3.8; Bfl-1 A1 inh: 0.1; T cruzi inh: -10; Calb FLC: 22; LANA-H2A inh: -3.7

What do the screens show for `CCOC(=O)CC1=NS(=O)(=O)c2ccccc2N1`?
Beta cell apopt: -2; Vif A3G: 0%; RanGTP-Impb inh: inconclusive; Bfl-1 A1 inh: 0.1; T cruzi inh: -6; Calb FLC: 7; LANA-H2A inh: 0.3

How did COc1ccc(C(=O)COC(=O)CCn2nnc(-c3cccs3)n2)cc1 do in these assays?
Beta cell apopt: -3; Vif A3G: 0%; RanGTP-Impb inh: -3.4; Bfl-1 A1 inh: 1.0; T cruzi inh: -16; Calb FLC: 7; LANA-H2A inh: 1.6

How did CC1CCN(C(=S)c2ccc(N(C)C)cc2)CC1 do in these assays?
AF4-AF9 inh: 13; Beta cell apopt: -5; Vif A3G: 10%; RanGTP-Impb inh: 1.1; Bfl-1 A1 inh: -0.7; T cruzi inh: -12; Calb FLC: -13; LANA-H2A inh: -5.7

What do the screens show for `Cc1cc(C(=O)Nc2ccccn2)no1`?
AF4-AF9 inh: 4.3; Beta cell apopt: -2; Vif A3G: 20%; RanGTP-Impb inh: -1.9; Bfl-1 A1 inh: -3.2; T cruzi inh: -4; Calb FLC: -11; LANA-H2A inh: -4.5

Results for COc1cc(/C=C2\SC(N3CCc4ccccc4C3)=NC2=O)cc(OC)c1OC ?
AF4-AF9 inh: 2.6; Beta cell apopt: 0; Vif A3G: -2%; RanGTP-Impb inh: 4.1; Bfl-1 A1 inh: -0.1; T cruzi inh: 15; Calb FLC: 3; LANA-H2A inh: -2.7

How did O=C(NCc1ccc(F)cc1)C(=O)NCC1CCCN1S(=O)(=O)c1ccccc1 (stereo not drawn) do in these assays?
AF4-AF9 inh: 0.7; Beta cell apopt: 1; Vif A3G: 4%; RanGTP-Impb inh: -1.4; Bfl-1 A1 inh: 0.0; T cruzi inh: 0; Calb FLC: 10; LANA-H2A inh: -3.9

What do the screens show for `CCn1ncc(C2=NOC(C(=O)N3CCN(c4ccccc4)CC3)C2)c1C` (stereo not drawn)?
AF4-AF9 inh: 2.6; Beta cell apopt: 1; Vif A3G: 24%; RanGTP-Impb inh: -3.0; Bfl-1 A1 inh: -0.5; T cruzi inh: -6; Calb FLC: 20; LANA-H2A inh: 9.0

What do the screens show for `COc1ccccc1C1/C(=C(/O)c2ccc(Cl)cc2)C(=O)C(=O)N1CCN1CCOCC1` (stereo not drawn)?
Beta cell apopt: -10; Vif A3G: 0%; RanGTP-Impb inh: -3.3; Bfl-1 A1 inh: 0.5; T cruzi inh: -7; Calb FLC: -3; LANA-H2A inh: -2.4

How did O=C(Nc1cc2c3c(c1)CC(=O)N3CCC2)c1cccc(F)c1 do in these assays?
AF4-AF9 inh: -2.3; Beta cell apopt: -1; Vif A3G: -12%; RanGTP-Impb inh: -2.8; Bfl-1 A1 inh: 0.5; T cruzi inh: 1; Calb FLC: -11; LANA-H2A inh: 1.5

What do the screens show for `Fc1nc(F)c(F)c(NCCCNc2c(F)c(F)nc(F)c2F)c1F`?
AF4-AF9 inh: -3.7; Beta cell apopt: 3; Vif A3G: -3%; RanGTP-Impb inh: -4.9; Bfl-1 A1 inh: 1.1; T cruzi inh: 42; Calb FLC: 11; LANA-H2A inh: 0.1

How did O=c1[nH]c(C2CCN(S(=O)(=O)c3ccc4c(c3)OCCO4)CC2)nc2c1nnn2Cc1c(F)cccc1Cl do in these assays?
AF4-AF9 inh: 1.6; Beta cell apopt: -5; RanGTP-Impb inh: 3.8; Bfl-1 A1 inh: -0.4; T cruzi inh: -6; Calb FLC: 11; LANA-H2A inh: -5.5

How did CCOC(=O)C1CCCN(CCC(=O)Nc2cc(OC)ccc2OC)C1 (stereo not drawn) do in these assays?
AF4-AF9 inh: 3.3; RanGTP-Impb inh: 2.3; Bfl-1 A1 inh: -0.5; T cruzi inh: 0; Calb FLC: -1; LANA-H2A inh: -3.1
